ClpP mod: qHTS Assay for Activators of ClpP; hit rate 1.9% among 340,000; ATP-dependent Clp protease proteolytic subunit (Bacillus subtilis (strain 168)), P80244; Potency, µM (titrated, usually from 57.5 µM), inactives show top-dose activity change, negative = active; purified B. subtilis ClpP, FRET peptide cleavage, 20 min; active = well fitted falling curve with a large enough effect; inconclusive = small, poorly fitted or top-dose-only effect; inactive = no such curve, though single readings can be large or run the other way; also: potency is read from the fitted curve at half-maximal effect; the source files actives as falling curves though it sought activators and does not explain the sign; nearly all actives have a fitted effect of over 65% in size; many hits overshoot -100%
Target sequence (P80244 whole entry, looked up): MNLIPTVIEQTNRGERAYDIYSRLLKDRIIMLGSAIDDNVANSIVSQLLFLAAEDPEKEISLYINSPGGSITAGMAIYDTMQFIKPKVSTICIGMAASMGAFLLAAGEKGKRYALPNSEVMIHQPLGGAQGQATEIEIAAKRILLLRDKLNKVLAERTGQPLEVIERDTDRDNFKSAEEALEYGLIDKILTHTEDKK
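FRET quenching reversal measured ClpP activation: 10 microg/mL B. subtilis ClpP at pH 8 with the FRET-FV decapeptide, read at 430 nm after 320 nm excitation. The 20-min minus 0-min signal was scaled between DMSO/no-enzyme wells and ADEP (5.8 microM final).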
TRPML1 blocker: qHTS for Inhibitors of the Human Mucolipin Transient Receptor Potential 1 (TRPML1). TRPML1-inducible cells, Ca2+ dye fluorescence, FDSS; stronger effect = lower value; inhibition of EC80 agonist-evoked calcium signal. activity change, negative = inhibition, % (no concentration beside the values). hit rate 0.02% among 390,000; in the data active means activity change below about -50%; inconclusive means about -30% to -50%; inactive means above about -30%;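 also: stimulus is agonist 54-4 at its EC80 concentration; % is scaled to controls: 0 for no effect and ±100 for the full control effect; compound concentration not given in the record; the text of the record puts the active cut at -80%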
Target sequence (Q9GZU1 whole entry, looked up): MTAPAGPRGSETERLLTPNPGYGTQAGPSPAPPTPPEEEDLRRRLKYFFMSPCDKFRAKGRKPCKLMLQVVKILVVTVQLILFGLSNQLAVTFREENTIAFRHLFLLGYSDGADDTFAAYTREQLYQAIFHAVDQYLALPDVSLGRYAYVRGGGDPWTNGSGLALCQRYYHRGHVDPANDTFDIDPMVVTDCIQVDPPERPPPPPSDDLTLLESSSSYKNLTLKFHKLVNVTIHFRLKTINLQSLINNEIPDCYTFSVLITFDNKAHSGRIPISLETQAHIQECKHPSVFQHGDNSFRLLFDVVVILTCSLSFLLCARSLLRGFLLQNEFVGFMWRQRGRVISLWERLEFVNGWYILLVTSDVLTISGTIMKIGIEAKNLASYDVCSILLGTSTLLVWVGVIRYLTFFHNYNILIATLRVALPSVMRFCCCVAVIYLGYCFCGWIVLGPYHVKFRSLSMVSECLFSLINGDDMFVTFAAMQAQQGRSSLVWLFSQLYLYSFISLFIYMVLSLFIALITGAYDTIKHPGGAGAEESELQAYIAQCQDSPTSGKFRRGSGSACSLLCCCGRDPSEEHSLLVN
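Tet-induced TRPML1-DL cells loaded with Ca8 no-wash calcium dye were read kinetically on FDSS. Compound addition was followed by EC80 agonist 54-4 (4 uM final); inhibition was read over 110 s.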
* = called active by the depositor; ? = inconclusive.

SMILES | ClpP mod | TRPML1 blocker
CCc1ccc(OCC(=O)Nc2ccc3c(c2)c2ccccc2n3CC)cc1 | 1.3% | 20
COc1ccc(N2CCN(Cc3nc4c(c(=O)[nH]c(=O)n4C)n3Cc3ccccc3)CC2)cc1 | -3.6% | 5
Cc1nc2c3ccccc3nc(NNC(=O)CCC(=O)N3CCN(c4cccc(C(F)(F)F)c4)CC3)n2n1 | -0.8% | 5
CN(Cc1ccccc1)c1ncnc2c1nc1n2CCCC1 | -2.9% | -5
COc1cc(NC(=O)C(CCSC)NS(=O)(=O)c2ccc3c(c2)oc(=O)n3C)cc(OC)c1 (stereo not drawn) | -1.4% | -9
Cc1c(CCNC(=O)c2ccco2)sc2nc(-c3ccc(F)cc3)nn12 | 0.0% | 3
COc1ccc2c(c1)c(=O)c(C(=O)c1ccc(C)c(C)c1)cn2CC(=O)Nc1ccc2c(c1)OCCO2 | -1.7% | -8
Cc1cccc(NC(=O)c2oc3ccccc3c2NC(=O)Cc2coc3cc(C)cc(C)c23)c1 | -1.6% | -10
Cc1nc(SCC(=O)OC(C)(C)C)c2c3c(sc2n1)CCCC3 | -0.9% | 11
CC1CCN(C(=O)CN2c3ccc(Br)cc3-c3ccccc3S2(=O)=O)CC1 | 2.7% | ?
COc1ccc(-c2nc3ccccc3s2)cc1NC(=O)c1ccc(C#N)cc1F | -12% | -4
CCN1CCC(N(Cc2cccc(OC)c2)C(=O)Nc2cccc(C(F)(F)F)c2)CC1 | 1.9% | 5
CSc1ccc(C2c3[nH]c4ccccc4c3CCN2C(=O)CCc2ccccc2)cc1 (stereo not drawn) | -4.6% | 1
Cc1nn2cc(-c3ccc(OC(C)C)cc3)nc2s1 | 1.9% | -10
Cc1cccc(S(=O)(=O)c2cn(Cc3ccccc3)c3cc(N4CCCCC4)c(F)cc3c2=O)c1 | -11% | 6
Cn1cc(-c2ccc(C(=O)NCc3cccc(Cl)c3)c3occc23)cn1 | 4.4% | -9
O=C(CSCc1cnn(-c2ccccc2)c1-n1cccc1)NCc1ccc(F)cc1 | 0.4% | 18
CCOC(=O)c1c(NC(=O)COc2ccc(Cl)cc2C)sc(C(C)=O)c1C | 1.1% | 19
COc1ccc(Br)c2c1-c1nc(NC(=O)c3cccc(C)c3)sc1C2 | -5.3% | -8
CCNC(=O)C1CCCN(C(=O)c2ccc(C)c(F)c2)CC1 (stereo not drawn) | -0.9% | 89
Cc1cc(Nc2ccc(C)c(Cl)c2)n2nc(Cc3ccccc3)nc2n1 | -2.7% | 58
O=S(=O)(Nc1ccc(O)c(Sc2nc3ccccc3s2)c1)c1cc(Cl)ccc1Cl | -3.9% | 1
COc1ccc(-c2nn(C)c3sc(C(=O)Nc4cc(OC)c(OC)c(OC)c4)cc23)cc1OC | -24% | -4
Cc1cc(Br)ccc1NC(=O)c1cn(C2CCCC2)c(=O)c2c1c1ccccc1n2C | -13% | -9
COc1ccc(C(=O)c2c(N)c(-c3nc(-c4ccccc4)cs3)c3ccccn23)cc1 | -3.1% | 21
CCC(Oc1ccc(F)cc1)C(=O)Nc1cc(-c2ccc(C)cc2)no1 (stereo not drawn) | -1.9% | -10
Cc1ccc(-c2cn3c(n2)sc2cc(C(=O)NCCC4=CCCCC4)ccc23)c(C)c1 | ? | 9
Cc1cc(C)cc(N2C(=O)N(Cc3cccc(F)c3)c3ccccc3S2(=O)=O)c1 | -0.2% | 1
CCOC(=O)c1ccc(CN(Cc2ccc(Br)cc2)S(=O)(=O)c2cccc(Cl)c2C)cc1 | -2.6% | 23
COC(=O)c1ccccc1NC(=O)c1ccc2c(c1)CCN2S(C)(=O)=O | -2.3% | 13
COc1cccc2cc(-c3nc(-c4ccc(Cl)cc4)cs3)c(=O)oc12 | -9.3% | 0
Cc1c(C(=O)N2CCCCCC2)c(S(=O)(=O)Nc2ccc(OC(F)(F)F)cc2)c(C)n1C | 0.7% | -3
CC(=O)c1nnn(-c2ccc(C)cc2Cl)c1C | 0.5% | 30
Cc1ccc(C(=O)c2oc3ccccc3c2NC(=O)c2cc(-c3ccc(Cl)cc3)on2)cc1 | -2.2% | -9
Cc1ccc(-c2n[nH]c3c2C(c2ccccc2Cl)N(c2ccc(C(=O)O)cc2)C3=O)cc1 (stereo not drawn) | 1.3% | -2
CCOC(=O)c1ccc(-c2ccc(/C=C(\C#N)c3nc4ccc(C)cc4[nH]3)o2)cc1 | 4.5% | -29
Cc1ccc(-n2c(SCc3ccccc3F)nc3[nH]ncc3c2=O)cc1Cl | 1.7% | 32
O=C(COCc1cc(-c2ccc(F)cc2)on1)Nc1cc(Cl)cc(Cl)c1 | 2.0% | 11
COCCN(Cc1ccco1)C(=O)c1cc2c(=O)[nH]c3ccc(C)cc3c2s1 | 4.1% | 26
CCC(=O)N1CCc2cc(CNC(=O)Nc3ccc(OC)cc3OC)ccc21 | -5.7% | -20

Sorted by length of the SMILES (rising): three of the compounds above
SMILES | ClpP mod | TRPML1 blocker
Cc1cc(Nc2ccc(C)c(Cl)c2)n2nc(Cc3ccccc3)nc2n1 | -2.7% | 58
CCC(Oc1ccc(F)cc1)C(=O)Nc1cc(-c2ccc(C)cc2)no1 (stereo not drawn) | -1.9% | -10
O=C(COCc1cc(-c2ccc(F)cc2)on1)Nc1cc(Cl)cc(Cl)c1 | 2.0% | 11

An excerpt of these results, as comma-separated lines:
SMILES,ClpP mod,TRPML1 blocker
Cc1cc(Nc2ccc(C)c(Cl)c2)n2nc(Cc3ccccc3)nc2n1,-2.7%,58
O=S(=O)(Nc1ccc(O)c(Sc2nc3ccccc3s2)c1)c1cc(Cl)ccc1Cl,-3.9%,1
COc1ccc(-c2nn(C)c3sc(C(=O)Nc4cc(OC)c(OC)c(OC)c4)cc23)cc1OC,-24%,-4

(continued)
SMILES | ClpP mod | TRPML1 blocker
COc1ccc(Nc2nnc(-n3nc(C)cc3C)c3ccccc23)cc1 | 0.0% | -8
Cc1cccc(C(=O)NC2=NC(c3ccc(Cl)cc3)CC(=O)N2)c1 (stereo not drawn) | -3.3% | 7
CCN(C(=O)Cn1cc(C(=O)c2ccc(F)cc2)c(=O)c2ccc(C)nc21)c1cccc(C)c1 | -5.7% | 8
Cc1nc(-c2ccc(S(=O)(=O)N3CCN(c4ccc(F)cc4)CC3)cc2)co1 | 1.8% | -7
COc1ccc(CNC(=O)CSc2ncc(S(=O)(=O)c3ccc(Br)cc3)c(=O)[nH]2)cc1 | -2.7% | 5
CC1CCC(Nc2ncnc3onc(-c4ccc(F)cc4)c23)CC1 (stereo not drawn) | -2.0% | 73
CCCCc1nn2c(=O)cc(COC(=O)c3ccco3)nc2s1 | -1.2% | -19
COc1ccc(OC)c(NC(=O)CSC2=Nc3ccccc3C3=NC(CCC(=O)NCCc4ccccc4)C(=O)N23)c1 (stereo not drawn) | 0.3% | -4
CC(=O)Nc1ccc(/C=C/c2nc(-c3ccccc3O)n(-c3ccccc3)n2)cc1 | 4.2% | 9
Cc1cc(C)c(NC(=O)CCc2c(C)nc3c(c(C)nn3C(C)(C)C)c2C)c(C)c1 | -0.1% | 38
COc1cc(NC(=O)CSc2ncc(S(=O)(=O)c3ccc(Br)cc3)c(=O)[nH]2)cc(OC)c1 | -0.2% | -16
CCN(CC)CCCNC(=O)Cc1ccc(NC(=O)N2CCCCc3ccccc32)cc1 | -0.7% | 5
COc1ccccc1C(=O)NC1(C(F)(F)F)C(=O)Nc2c1c(=O)[nH]c(=O)n2-c1ccc(F)cc1 (stereo not drawn) | -0.2% | 2
Cc1cn(C)c(CC(=O)NCc2ccccc2Cl)c1C(=O)O | -2.7% | -10
CCOc1cc(C#N)c(NC(=O)c2cccc(S(=O)(=O)N3CCOCC3)c2)cc1OCC | -1.2% | -16
CCCc1cc(=O)oc2c3c(ccc12)OCN(Cc1ccccc1OC)C3 | 3.9% | 2
O=C1CSC2(C(=O)N(Cc3c(F)cccc3Cl)c3ccccc32)N1c1ccc(F)c(F)c1 (stereo not drawn) | 0.1% | 36
CCCSc1nnc2c(n1)OC(CC)N(C(C)=O)c1ccccc1-2 (stereo not drawn) | -0.8% | 3
COc1ccc(/C=C/c2nc(C#N)c(NC3CCCCC3)o2)cc1OC | 4.5% | 1
Cc1nn(C(=O)c2c(F)cccc2F)c(C)c1S(=O)(=O)N1CCCCCC1 | 0.6% | -16
CCn1c2ccccc2c2nnc(N3CCN(c4ccc(F)cc4)CC3)nc21 | -1.1% | 8
COc1ccc(NC(=O)CSc2oc(-c3ccco3)nc2S(=O)(=O)c2ccccc2)c(OC)c1 | -0.7% | -19
O=C(CSc1nccn1-c1cccc(Cl)c1)Nc1ccc2c(c1)OCO2 | 1.0% | 17
Cc1ccc2c(c1)c(=O)c(C(=O)c1ccc3c(c1)OCO3)cn2Cc1cccc(F)c1 | 0.9% | 17
CC(=O)CSc1nc(-c2ccccc2)[nH]c1S(=O)(=O)c1ccc(C)cc1 | -1.4% | 3
COc1ccc(N2CCN(CCCNC(=O)C3COc4ccccc4C3)CC2)cc1 (stereo not drawn) | -3.1% | 95
CC(=O)c1ccc(NS(=O)(=O)c2cc3[nH]c(=O)c(=O)[nH]c3cc2C)cc1 | -1.3% | -21
CCC1CCCCN1CCCNC(=O)c1ccc2c(c1)N(Cc1ccccc1F)C(=O)c1ccccc1S2(=O)=O (stereo not drawn) | -0.7% | 6
Cc1ccc(C)c(NC(=O)C(Cc2ccccc2)N2Cc3ccccc3C2=O)c1 (stereo not drawn) | -2.3% | -16
CCc1ccc(NC(=O)CSC2=Nc3ccccc3C3=NC(CC(=O)NCc4cccs4)C(=O)N23)cc1 (stereo not drawn) | 8.1% | 55
COc1ccc(N(C(=O)COc2c(C)cccc2C)S(=O)(=O)c2ccc(Cl)cc2)cc1 | 2.1% | 32
O=C(NCCc1cccs1)c1ccc(Cn2c(SCc3ccc(F)cc3)nc3cccnc32)cc1 | 25µM* | 14
CCc1ccc(-n2c(=O)c3ccc(C(=O)NCCc4ccccc4)cc3n(Cc3ccccc3C#N)c2=O)cc1 | -1.1% | -2
CCNC(=O)c1ccc(NC(=O)N2CCCCc3ccccc32)cc1 | -0.2% | 14
COC(=O)C1=C(CS(=O)(=O)c2ccc(C)cc2C)NC(=O)NC1c1ccc(C)cc1 (stereo not drawn) | 0.6% | -10
CCCCCn1c(=O)[nH]c2cc(C(=O)N3CCN(c4cccc(Cl)c4)CC3)ccc2c1=O | -1.1% | 2
CCN(CC)c1cc(NC2CCCCC2)c2c3c(onc13)-c1ccccc1C2=O | 1.6% | -4
COc1ccccc1Cc1nc2ccccc2nc1SCC(=O)Nc1cc(Cl)ccc1OC | -2.6% | 4
O=C(NC1CC(=O)N(c2ccccc2)C1)c1ccco1 (stereo not drawn) | 1.2% | -11
CCCS(=O)(=O)NC(=O)C1(C)CCCN(C(=O)c2c(-c3ccccc3)noc2C)C1 (stereo not drawn) | -2.8% | 19
CC(C)(C)c1ccc(CSc2nc3c(c(=O)[nH]2)CCCC3)cc1 | -2.4% | 5
COc1cccc(-n2nnc(-c3nc(-c4cccs4)no3)c2N)c1 | 3.2% | -2
O=C(CSc1cn(CCNC(=O)c2ccccc2F)c2ccccc12)Nc1ccccc1F | 0.2% | 3
CCOC(=O)c1c(NC(=O)COc2ccc(C)cc2C(C)(C)C)sc2c1CCC(C)C2 (stereo not drawn) | -23% | -13
COc1ccc(CCNc2nc3c(-c4cccc(C)c4)nnn3c3ccccc23)cc1OC | -13% | 13
CC(=O)c1c(C)oc2c1cc(NS(=O)(=O)c1ccc(C(C)(C)C)cc1)c1ccccc12 | -0.1% | -25
CC(C)CCn1c(SCc2cccc(F)c2)nc2ccsc2c1=O | -0.8% | ?
CCc1ccc2occ(CC(=O)Nc3c(C(=O)c4ccccc4)oc4ccccc34)c2c1 | 22µM* | -2
Cc1ccc2nc(-c3ccccc3O)c(Nc3ccccc3C)n2c1 | ? | 0
O=C(c1cnc(N2CCCCC2)c2ccccc12)N1CCN(c2ccc(F)cc2)CC1 | -5.8% | -18
Cc1ccccc1CN1CCC(CNC(=O)c2c(C)oc3ncnc(N4CCCCC4)c23)CC1 | 0.9% | 3
Cn1c(C(=O)NCc2ccccc2F)cc2oc3ccccc3c21 | 4.5% | 70
O=C(CSc1nc2c(cnn2-c2ccc(F)cc2)c(=O)[nH]1)Nc1ccccc1C(F)(F)F | -10% | 2
CC(=O)Nc1ccc2nc(SCCOc3ccccc3Cl)sc2c1 | 0.7% | -5

A different layout for some results above.
| smiles | ClpP mod | TRPML1 blocker |
| --- | --- | --- |
| Cn1c(C(=O)NCc2ccccc2F)cc2oc3ccccc3c21 | 4.5% | 70 |
| COc1cccc(-n2nnc(-c3nc(-c4cccs4)no3)c2N)c1 | 3.2% | -2 |

Only part of the results is shown; count on the stated rates, not on these rows.
